# Choline anaer gr: choline-fed anaerobic bacterial growth inhibition. Gram-negative bacterium anaerobic choline minimal medium, absorbance growth; stronger effect = lower value; many inactives read as strong as hits in the columns shown. calls only. actives 0.2% (n = 55,000);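 active = growth z-score on choline under -2 at 7 or 20 h with little or no fall on glycerol, limits in tiers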;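 also: stock transfer was 300 nL into about 50 µL; the organism is E. coli; final concentration not given here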
# Choline anaer gr early: further read-out of Choline anaer gr, marked with its call; z-score; measured here: choline growth z-score, timepoint 1;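 score of optical density at 7 h as mean of two plates; lower means less growth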
# Numbers without * were called inactive; i = inactive.
SMILES,Choline anaer gr,Choline anaer gr early
COc1ccc(-c2nc3sc(C)nn3c2NC2CCCCC2)cc1,i,0.17
Cc1cc(C)c2c(n1)sc1c(=O)n(CC(=O)NCc3ccc4c(c3)OCO4)cnc12,i,1.4
O=C(Nc1ccc2nc3n(c(=O)c2c1)CCC3)Nc1ccccc1Br,i,-0.55
CCCc1cc(=O)[nH]c(-n2nc(C)cc2NC(=O)C2CC(=O)N(c3ccc(Cl)cc3)C2)n1 (configuration not stated),i,1.1
CCC(C)NC(=O)COc1ncnc2onc(-c3ccccc3)c12 (configuration not stated),i,0.31
COC(=O)c1ccccc1NC(=O)c1ncoc1-c1cccc(C)c1,i,-1.3
CC(C)Cc1c(O)nc2n(c1=O)CCCS2,i,0.08
COc1ccc(-c2noc(CCCn3c(=O)[nH]c4cc5c(cc4c3=O)OCO5)n2)cc1OC,i,-1.1
COc1ccc2nc(Nc3sc4c(c3C(N)=O)CCCC4)sc2c1,i,-0.97
Cc1c(NC(=O)C2=Cc3sc4c(c3CS2)CCCC4)c(=O)n(-c2ccccc2)n1C,i,-0.1
Cc1ccc(-c2ccc(N3CCC(C(=O)NC4CCCC4)CC3)nn2)cc1,i,0.27
COc1ccc(CN2C(=O)C3CCCC3=Nc3cc(C)c(C)cc32)cc1F (configuration not stated),i,0.51
CCc1ccc(-c2noc(Cn3cnc4c(nnn4-c4ccccc4OC)c3=O)n2)cc1,i,0.94
O=C(CCC(=O)N1Cc2cccn2-c2ccccc21)NCCc1c[nH]c2ccccc12,i,0.23
Cc1[nH]c(C)c(S(=O)(=O)N2CCC(C(=O)N3CCN(C4CCCCC4)CC3)CC2)c1C(=O)N1CCCCC1,i,0
O=C(Nc1nccs1)C1CCCN(S(=O)(=O)c2cc(-c3noc(C4CCCC4)n3)cs2)C1 (configuration not stated),i,-0.57
Cc1noc2nc(CCC(=O)NC(C)C)nc(N3CCC(C)CC3)c12,i,-1.5
CCn1c(Cn2cccn2)nc2cc(NC(=O)C(C)C)ccc21,i,-0.46
CCc1nn2c(=O)cc(CSc3nc(-c4ccccc4)nc4cc(=O)[nH]n34)nc2s1,i,-0.45
Cc1ccc(CN2C(=O)C3CCCCC3C2=O)cc1S(=O)(=O)Nc1cccc(C)c1C (configuration not stated),i,-1.4
C=C[C@]1(C)CC(OC(=O)CSC(C)(C)CNC(=O)C(N)C(C)C)[C@@]2(C)C(C)CC[C@]3(CCC(=O)[C@H]32)C(C)C1O (some centres not stated),i,-3
CCS(=O)(=O)NCC(c1ccc(N(C)C)cc1)N(C)C (configuration not stated),i,0.41
O=S(=O)(c1ccc2c(c1)-c1oncc1CO2)N1CCN(Cc2ccc3c(c2)OCO3)CC1,i,-0.84
O=C(c1ccc2c(c1)OCCO2)N1CCC(c2nc(-c3ccc(S(=O)(=O)N4CCCC4)cc3)no2)CC1,i,-1
COc1cc(NC(=O)N2CCN(Cc3cc(=O)n4nc(-c5ccccc5)sc4n3)CC2)cc(OC)c1,i,0.31

# One compound at a time (already shown). Order of screens: Choline anaer gr | Choline anaer gr early
# Listed for O=C(Nc1nccs1)C1CCCN(S(=O)(=O)c2cc(-c3noc(C4CCCC4)n3)cs2)C1 (configuration not stated) : i | -0.57
# Listed for COc1ccc(CN2C(=O)C3CCCC3=Nc3cc(C)c(C)cc32)cc1F (configuration not stated) : i | 0.51
# Listed for O=C(CCC(=O)N1Cc2cccn2-c2ccccc21)NCCc1c[nH]c2ccccc12 : i | 0.23

# Structures listed so far that have two or more sulfur atoms (4):
SMILES,Choline anaer gr,Choline anaer gr early
COc1ccc2nc(Nc3sc4c(c3C(N)=O)CCCC4)sc2c1,i,-0.97
Cc1c(NC(=O)C2=Cc3sc4c(c3CS2)CCCC4)c(=O)n(-c2ccccc2)n1C,i,-0.1
O=C(Nc1nccs1)C1CCCN(S(=O)(=O)c2cc(-c3noc(C4CCCC4)n3)cs2)C1 (configuration not stated),i,-0.57
CCc1nn2c(=O)cc(CSc3nc(-c4ccccc4)nc4cc(=O)[nH]n34)nc2s1,i,-0.45

# The listing continues.
SMILES,Choline anaer gr,Choline anaer gr early
CCCCN(C)c1ncc(C(=O)O)cc1NS(=O)(=O)c1cc(C)c(C)cc1C,i,0.2
COCCn1c(CCNC(=O)C(C)(C)C)nc2ccccc21,i,0.6
COCCNc1cc(C)nc2c(-c3ccc(F)cc3)c(C(F)(F)F)nn12,i,-1.1
CN(CCc1noc(-c2ccccc2Cl)n1)S(=O)(=O)c1cccc2nsnc12,i,-1.4
CCc1nc(CN2C(=O)COc3ccc(S(=O)(=O)N4CCCC4)cc32)no1,i,-1.7
CCCCCN1C(C(=O)c2ccccc2)=C(NC(=O)Cc2ccccc2)c2ccccc2S1(=O)=O,i,0.77
CCN(CC)CCCNC(=O)C1=C(C)C(=O)OC12CCN(Cc1ccccc1)CC2,i,-0.88
COc1cccc(CCNC(=O)Cn2c(=O)c(=O)n(C)c3ncccc32)c1,i,0.94
Cn1nc(-c2nnc(-c3ccc(F)cc3)o2)c2c1CCN(S(=O)(=O)c1ccc(F)cc1F)C2,i,0.26
CS(=O)(=O)N1CCN(c2ccc(Nc3nc4ccccc4nc3N3CCOCC3)cc2)CC1,i,0.84
COC(=O)CSc1nc2sc3c(c2c(=O)n1-c1ccccc1)CCCC3,i,0.05
COc1ccccc1NC(=O)N1CCCC(c2nnc(C(=O)Nc3ccc(F)cc3)s2)C1 (configuration not stated),i,0.32
Cc1csc(-n2[nH]c(C)c(CC(=O)Nc3ccccc3Cl)c2=O)n1,i,-0.58
Cc1onc(-c2ccccc2Cl)c1C(=O)Nc1nnc2n1CCS2,i,-2.3
O=c1[nH]c(SC/C=C/c2ccccc2)nc2c1cnn2-c1ccc(Cl)cc1,i,1.1
CCC(=O)NCc1nc(-c2ccccc2Cl)no1,i,-0.15
COc1ccc(C2CC(=O)C3=C(C2)Nc2onc(C)c2C3c2cccc(O)c2)cc1OC (configuration not stated),i,0.13
CCOC(=O)c1c(-c2ccccc2)csc1NC(=O)COCc1cc(-c2ccc3c(c2)OCO3)on1,i,-1.6
CC(C)Cn1c(=O)c2sccc2n2c(CCC(=O)N3CCN(c4ccccn4)CC3)nnc12,i,0.04
CCN(CC)S(=O)(=O)c1ccc(NC(=O)N2CCCC(C(=O)Nc3ccc(F)cc3)C2)s1 (configuration not stated),i,-0.04
C=CCN1CC(c2nc3ccccc3n2CC(O)COc2c(C)cccc2C)CC1=O (configuration not stated),i,-1.8
Cn1c(=O)c(=O)n(C)c2cc(Oc3ccccc3)c(NC(=O)C(C)(C)C)cc21,i,0.48
CCOC(=O)c1c(C)[nH]c(C(=O)N2CCC(C(C)C(=O)NCc3ccc(OCC)cc3)CC2)c1C (configuration not stated),i,-2
COc1ccc(CCNS(=O)(=O)c2csc(C(N)=O)c2)cc1OC,i,-0.79
CCOC(=O)c1c(S(=O)(=O)NCC(=O)N2CCc3ccccc32)c(C)n(CC)c1C,i,-0.41
SMILES,Choline anaer gr,Choline anaer gr early
COc1ccc(-c2c(C)nn3c(C)cc(C)nc23)cc1,i,0.5
Cc1noc(Cn2cnc3c4cc(F)ccc4n(Cc4ccc(F)cc4)c3c2=O)n1,i,-0.38
CCCn1c(=O)c2ccc(Cl)cc2n2c(=O)n(CC(=O)Nc3cc(F)ccc3F)nc12,i,-0.46
Cc1ccc(-c2nn3c(=O)cc(CN4CCN(C(=O)c5ccc6c(c5)OCO6)CC4)nc3s2)cc1,i,-0.29
CCCC(=O)N1CCN=C1N1CCCCC1,i,-0.43
O=C(O)/C=C/c1cnc[nH]1,i,0.6
Cc1noc2c1C(c1cccc(Br)c1)C1=C(CCCC1=O)N2 (configuration not stated),i,0.14
C=CCn1c(=O)c(=O)n(Cc2ccc(C(=O)NCCCN3CCCC3=O)cc2)c2ccccc21,i,-0.29
Cc1ccc(S(=O)(=O)c2cnc(N3CCN(c4ccccc4Cl)CC3)nc2N)cc1C,i,-0.21
COc1ccc(-n2nnc(-c3nc(-c4ccccc4)no3)c2C)cc1Cl,i,1.8
O=C(O)c1cc(N2CCN(c3cccc(Cl)c3)CC2)nc2ccc(NC(=O)C3CCC3)cc12,i,0.29
CC(=O)Nc1ccccc1-c1nc2ccccc2n(CCOc2ccccc2)c1=O,i,-1.7
Cc1cccc(C)c1NC(=O)CSc1nnc(C(C)N2C(=O)COc3ccccc32)n1C (configuration not stated),i,-0.33
Cc1ccc(Nc2cc(C)ncn2)cc1,i,-2.3
CCCC(=O)N1CCCCC1CCN1CCOCC1 (configuration not stated),i,-0.03
Cc1[nH]c(C(=O)N2CCC(CC(=O)NC(C)CCc3ccccc3)CC2)c(C)c1C (configuration not stated),i,-1.4
CCCCC[C@H](O)CC[C@@H]1[C@@H](CCCCCCC(=O)O)[C@@H](O)C[C@H]1O,i,0.35
CCOc1ccccc1NC(=O)NC(Cc1ccc(OC)cc1)Cc1ccc2c(c1)OCO2 (configuration not stated),i,1.5
COC(=O)c1sccc1S(=O)(=O)Nc1cccc(F)c1,i,-0.41
CCn1cnc2c(-c3ccccc3)csc2c1=O,i,-0.38
COc1cccc(NS(=O)(=O)c2cc(-c3ccno3)oc2C)c1,i,-0.58
CCCN1CCN(C(=O)C2CCCN(C(=O)CCc3c(C)[nH]c(C(=O)OCC)c3C)C2)CC1 (configuration not stated),i,-0.4
O=C(c1cc2cccnc2n(Cc2ccccc2)c1=O)N1CCN(Cc2ccccc2)CC1,i,-0.94
O=c1cc(-c2cccc3c2Sc2ccccc2S3)oc(N2CCOCC2)c1,i,-0.08
CCCN(C)S(=O)(=O)c1cc(-c2nnc(C3CCCC3)o2)co1,i,0.06

# Molecules listed so far containing a COOH group:
SMILES,Choline anaer gr,Choline anaer gr early
CCCCN(C)c1ncc(C(=O)O)cc1NS(=O)(=O)c1cc(C)c(C)cc1C,i,0.2
O=C(O)/C=C/c1cnc[nH]1,i,0.6
O=C(O)c1cc(N2CCN(c3cccc(Cl)c3)CC2)nc2ccc(NC(=O)C3CCC3)cc12,i,0.29
CCCCC[C@H](O)CC[C@@H]1[C@@H](CCCCCCC(=O)O)[C@@H](O)C[C@H]1O,i,0.35

# (listing goes on)
SMILES,Choline anaer gr,Choline anaer gr early
Cc1ccc(S(=O)(=O)N2CCCC(c3nc(-c4ccccc4Br)no3)C2)cc1 (configuration not stated),i,1.5
Cc1ccc(Cc2nc(CCNS(=O)(=O)c3cnn(C(F)F)c3C)n[nH]2)cc1,i,0.26
CCN(CC)S(=O)(=O)c1ccc2c(c1)nc(CN(C)S(=O)(=O)c1ccccc1)n2C,i,-0.17
O=c1cc(-c2ccccc2)oc2c(O)c(O)ccc12,i,-0.66
CN1CCN(c2nn3c(NC(C)(C)C)c(-c4cccc(F)c4)nc3s2)CC1,i,1.7
CC(C)NC(=O)CCc1nnc2n(C)c(=O)c3sccc3n12,i,-0.29
Fc1ccccc1N1CCN(c2ncc3c(n2)CCN(Cc2ccc4c(c2)OCCO4)C3)CC1,i,0.46
CCCNc1cc(C)nc2nc(-c3ccc(OC)cc3)nn12,i,0.8
CCc1ccc(C2=Nc3cccnc3N(CC(=O)NCCc3ccc(Cl)cc3)C(=O)C2)cc1,i,0.25
Cc1nc(N2CCC(C(=O)NC(C)C)CC2)c2c(C)c(C)oc2n1,i,-0.6
CCc1ccc(C2c3c(-c4cc(C)ccc4O)n[nH]c3C(=O)N2Cc2cccnc2)cc1 (configuration not stated),i,0.94
Cc1ccccc1C(=O)Nc1ccc(-n2c(C)nc3ncccc3c2=O)cc1,i,-0.51
O=C(CN1C(=O)C2CCCCN2c2ccc(C(=O)N3CCCCC3)cc21)NCCC1=CCCCC1 (configuration not stated),i,1.2
Cc1noc(-c2ccccc2OCC(=O)Nc2nccs2)n1,i,0.24
CCCCNC(=O)C1CCN(c2ccc(Cl)cc2)C1=O (configuration not stated),i,-0.82
Cc1cccc(N2CCN(Cc3cccn3-c3nnc(N4CCC(C(=O)O)CC4)s3)CC2)c1C,i,-0.55
Cc1cc(N2CCOCC2)nc(N2CCN(S(=O)(=O)c3ccc4c(c3)Cc3ccccc3-4)CC2)n1,i,0.3
CCn1nccc1C1CCCN1S(=O)(=O)c1cc(F)ccc1F (configuration not stated),i,0.21
O=c1c(-c2nc(-c3ccc4c(c3)OCO4)no2)c[nH]c2ccc(F)cc12,i,-0.37
CCCC(=O)Nc1ccc(SCc2cc(=O)n3oc(C)cc3n2)cc1,i,-1
O=C1CC(c2n[nH]c(=S)o2)CN1c1ccc(F)c(Cl)c1 (configuration not stated),i,0.92
O=C(NC12CC3CC(CC(C3)C1)C2)C1CCN(S(=O)(=O)c2cccs2)CC1,i,0.93
O=C(NCC1CCCO1)c1ccc(CN2C(=O)CCn3nc(-c4cccc(Cl)c4)cc32)cc1 (configuration not stated),i,1.2
O=C(c1nc(-c2ccccc2)n(-c2ccc(Cl)cc2)n1)N1CCOCC1,i,-0.47
O=C(CCc1ccccc1)N1CCCN(C(=O)Nc2ccc(S(=O)(=O)N3CCCC3)s2)CC1,i,0.44
Cc1ccc(S(=O)(=O)N(Cc2ccccc2C)c2nc3nc(C)cc(C)n3n2)cc1,i,0.81
CCOc1ccc(-n2ccn3c(CC(C)CC(=O)O)nnc3c2=O)cc1 (configuration not stated),i,0.34
CC(O)CNC(=O)C(=O)NCc1n[nH]c(=O)c2ccccc12 (configuration not stated),i,-0.2
Cc1ccccc1-c1nn2c(=O)cc(N3CCN(S(=O)(=O)Cc4ccccc4)CC3)nc2s1,i,-0.2
Cc1ccnc(NC(c2ccsc2)c2c(NC(=O)c3ccccc3)sc(C)c2C)c1 (configuration not stated),i,-1.6

# From PubChem

# The list is partial, so the mix of outcomes need not match the whole.
